Assay outcomes as filed in PubChem BioAssay.
FPR: FPR binders displacing fluorescent formyl peptide, primary screen, U937-FPR cells, fMLFK-FITC, flow cytometry (AID 362) | U937-FPR cells, fMLFK-FITC displacement, flow cytometry; hits give high values; test concentration not given here; most inactive calls were filed without a number and no value below 0 was filed | inhibition, % | 1% of 4,300 active;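 active = inhibition of labelled peptide binding to the formyl peptide receptor of at least 65%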;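 note: plate controls were buffer control wells for no effect and unlabeled fMLFF blocking peptide for full effect; higher means less cell fluorescence so more probe displaced; part of the set was picked by virtual screening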
The depositor's hits bear a star; i = inactive. Some of the compounds tested, so the mix of outcomes need not match the whole.

SMILES | FPR
CCC(C)C1=CC(=Nc2c(C)n(C)n(-c3ccccc3)c2=O)C=C(C(C)CC)C1=O (centres undefined) | 31
CC(=O)Oc1ccc2oc(=O)c3c(c2c1)CCCN3C(C)=O | i
COc1cccc(C2NC(=O)NC(C)=C2C(=O)OCC(C)C)c1OC (centres undefined) | i
O=C(C1CCC(CNS(=O)(=O)c2ccc(Br)s2)CC1)N1CCc2ccccc21 (centres undefined) | i
O=C(NCc1ccco1)C1CCC(Cn2c(SCC(=O)N3CCN(c4ccccc4)CC3)nc3ccccc3c2=O)CC1 (centres undefined) | i
CCOC(=O)C1=C(c2ccccc2)OC(N)=C(C#N)C1C1CCCCC1 (centres undefined) | 19
CCOC(=O)c1cc2c(=O)n3ccccc3nc2n(CC(C)C)c1=NC(=O)c1ccc(C(F)(F)F)cc1 | i
CCCCSc1nc2c(c(=O)n1C1CCOC(C)(C)C1)C1(CCCCC1)Cc1ccccc1-2 (centres undefined) | i
O=C1/C(=C/c2ccc([N+](=O)[O-])o2)CCC/C1=C\c1ccc([N+](=O)[O-])o1 | i
O=C(NO)C1CCC(CN(Cc2ccccc2Cl)S(=O)(=O)c2ccc3ccccc3c2)CC1 (centres undefined) | 2
CCOc1ccccc1C(=O)NC1(C(F)(F)F)C(=O)Nc2c1c(=O)[nH]c(=O)n2-c1ccc(F)cc1 (centres undefined) | 75*
CCC(Oc1ccc2c3c(c(=O)oc2c1C)CCC3)C(=O)OC (centres undefined) | i
Cn1c(C(=O)N2CCCCC2)cc2c(=O)[nH]c3ccccc3c21 | i
CC1(C)CC(=O)C2=C(C1)Nc1nc3ccccc3n1C2c1cccc(F)c1Br (centres undefined) | 13
CCCC(C(=O)N1CCOCC1)N1C(=O)C2C3C=CC(C3)C2C1=O (centres undefined) | i
Cc1cccc(N2CCN(C(=O)c3cn(CC(C)C)c(=O)c4c3c3ccccc3n4C)CC2C)c1 (centres undefined) | i
O=C(CSc1nc2ccccc2c(=O)n1CC1CCC(C(=O)NCc2ccco2)CC1)NCCC1=CCCCC1 (centres undefined) | 8
CC1CCCN(c2ccc(N3C(=O)C4C5C=CC(C5)C4C3=O)cc2[N+](=O)[O-])C1 (centres undefined) | i
CCCc1cc2c(=O)c(-c3ccc(C(=O)OCC)o3)c(C(=O)OCC)oc2cc1OC(C)=O | 96*
N#Cc1cc2c(=O)n3ccccc3nc2n(C2CCCC2)c1=N | i
COc1ccc(C2C(C(=O)N3CCC(C)CC3)c3cc(OC)c(OC)cc3C(=O)N2C)cc1 (centres undefined) | i
COC(=O)C1C(=O)C2=C(CC1C)NC(C)=C(C(=O)OC1CCCC1)C2c1ccc(C(F)(F)F)cc1 (centres undefined) | i
CCOC(=O)C(NC(=O)c1ccc(F)cc1)(Nc1sc2c(c1C#N)CCCCC2)C(F)(F)F (centres undefined) | i
CC(C)Cn1cc(C(=O)NCCN2CCN(c3ccccc3F)CC2)c2c3ccccc3n(C)c2c1=O | 0
COc1cc(C2C3=C(CC(C)(C)CC3=O)OC3=C2C(=O)CC(C)(C)C3)ccc1OC(=O)c1ccccc1F | 18
CCOc1ccc(NS(=O)(=O)c2ccc3c(c2)[C@H]2C=CC[C@H]2[C@@H](c2ccc(C(=O)O)cc2)N3)cc1 | i
CCC(C)OC(=O)C1=C(C)NC2=C(C(=O)C(C(=O)OC)C(C)C2)C1c1cccc(O)c1 (centres undefined) | 4
CCOC(=O)c1cc2c(=O)n3ccccc3nc2n(CC(C)C)c1=NC(=O)c1ccc(OCC)cc1 | i
CCCC(O)(CCN1CCOCC1)c1ccc(OC)cc1 (centres undefined) | i
COc1ccc(OC)c(C2C(C#N)=C(N)N(c3ncn[nH]3)C3=C2C(=O)CC(C)(C)C3)c1 (centres undefined) | i
Cc1cccc(C)c1NC(=O)C1(NC(=O)C2CCCN2C(=O)OC(C)(C)C)CCCCC1 (centres undefined) | 0
COc1ccc([N+](=O)[O-])cc1NC(=O)C1C2C=CC(C2)C1C(=O)O (centres undefined) | 11
O=C(NCCN1CCOCC1)C1CCC(CNS(=O)(=O)c2ccc(Cl)cc2)CC1 (centres undefined) | i
CCOc1cc(C2C(C(=O)OC3CCCCCC3)=C(C)NC3=C2C(=O)CC(C)(C)C3)cc([N+](=O)[O-])c1O (centres undefined) | 40
CCOC(=O)C1=C(C)NC2=C(C(=O)C(C(=O)OC)C(C)C2)C1c1cc(Br)c(O)c(OCC)c1 (centres undefined) | 14
COc1cc(C2NC(=O)NC(C)=C2C(=O)OC2CCCC2)cc(OC)c1O (centres undefined) | i
Cc1ccc(NC(=O)C2CCC(CNS(=O)(=O)c3cccs3)CC2)c(C)c1 (centres undefined) | i
COc1cc(C2C(C(=O)OC3CCCCC3)=C(C)NC3=C2C(=O)CCC3)cc(OC)c1OC (centres undefined) | i
COc1ccc(NC(=O)CCCCCn2c(SCC(=O)Nc3ccccc3OC)nc3ccsc3c2=O)cc1 | i
CC1(C)CC(=O)C2=C(C1)OC(N)=C(C#N)C2c1cc(C(C)(C)C)c(O)c(C(C)(C)C)c1 (centres undefined) | i

By substructure: the entries above containing a CF3 group
SMILES | FPR
CCOC(=O)c1cc2c(=O)n3ccccc3nc2n(CC(C)C)c1=NC(=O)c1ccc(C(F)(F)F)cc1 | i
CCOc1ccccc1C(=O)NC1(C(F)(F)F)C(=O)Nc2c1c(=O)[nH]c(=O)n2-c1ccc(F)cc1 (centres undefined) | 75*
COC(=O)C1C(=O)C2=C(CC1C)NC(C)=C(C(=O)OC1CCCC1)C2c1ccc(C(F)(F)F)cc1 (centres undefined) | i
CCOC(=O)C(NC(=O)c1ccc(F)cc1)(Nc1sc2c(c1C#N)CCCCC2)C(F)(F)F (centres undefined) | i

More structures:
SMILES | FPR
CCOc1cc(C2C3=C(CC(C)(C)CC3=O)OC3=C2C(=O)CC(C)(C)C3)ccc1OC(=O)N1CCOCC1 | 3
CCOC(=O)C1=C(C)C2C3C(=O)N(c4ccccc4F)C(=O)C3C1(C)C1C(=O)N(c3ccccc3F)C(=O)C21 (centres undefined) | i
CN1CCN(CC#CCC(O)(c2ccccc2)C2CCCC2)CC1 (centres undefined) | i
Cc1cccc(Oc2c(C(F)(F)F)oc3cc(OC(C)C(=O)OCC(C)C)ccc3c2=O)c1 (centres undefined) | i
O=C(Nc1cccc(S(=O)(=O)N2CCOCC2)c1)C12CC3CC(C1)CC(n1cncn1)(C3)C2 | i
CCCc1c(C(=O)OCC)[nH]c2c1C(=O)CC(c1cc(OC)ccc1OC)C2 (centres undefined) | 0
O=C(NCc1ccc2c(c1)OCO2)C1CCC(CNS(=O)(=O)c2ccccc2)CC1 (centres undefined) | i
CC1CCN(S(=O)(=O)c2cn(CC(=O)Nc3cccc(C(F)(F)F)c3)c(=O)c3ccccc23)CC1 | i
CSC1=C(C#N)C2(CCCC2)C(C#N)C(=O)N1 (centres undefined) | 10
O=[N+]([O-])c1cccc(-c2nc(=S)c3c(n2CCCO)CCCC3)c1 | 0

Some of these compounds in order of their number in FPR, smallest number first.
SMILES | FPR
Cc1cccc(C)c1NC(=O)C1(NC(=O)C2CCCN2C(=O)OC(C)(C)C)CCCCC1 (centres undefined) | 0
COc1cc(C2C3=C(CC(C)(C)CC3=O)OC3=C2C(=O)CC(C)(C)C3)ccc1OC(=O)c1ccccc1F | 18
CCOC(=O)C1=C(c2ccccc2)OC(N)=C(C#N)C1C1CCCCC1 (centres undefined) | 19

Further structures follow.
SMILES | FPR
COc1nnc(-c2ccc(C)c(S(=O)(=O)NC3CCCCC3)c2)c2ccccc12 | i
CCOC(=O)c1c(NC(=O)C2CCCCC2C(=O)O)sc(C)c1-c1ccc(F)cc1 (centres undefined) | 57
Cc1ccc(CCNC(=O)C2CCC(CNS(=O)(=O)c3ccc(C)cc3)CC2)cc1 (centres undefined) | 8
CC(=O)c1cccc(N2C(=O)C3C4C=CC(C4)C3C2=O)c1 (centres undefined) | 4
COC(=O)C1C(=O)C2=C(CC1C)NC(C)=C(C(=O)OCCOC(C)C)C2c1ccccc1OC(C)C (centres undefined) | 15
COCCCNC(=O)CSc1nc2ccsc2c(=O)n1CCCCCC(=O)NCCc1ccc(OC)c(OC)c1 | i
O=C(C1CCC(CNS(=O)(=O)c2ccc(Cl)cc2)CC1)N1CCOCC1 (centres undefined) | i
N=c1c(C(=O)NCc2ccco2)cc2c(=O)n3ccccc3nc2n1C1CCCC1 | 6
CCCOc1ccc(C2NC(=O)NC(C)=C2C(=O)OC2CCC(C)CC2)cc1 (centres undefined) | i
COC(=O)C1C(=O)C2=C(CC1C)NC(C)=C(C(=O)OC(C)C)C2c1ccc(Cl)c([N+](=O)[O-])c1 (centres undefined) | 11

The final four entries of the section above are carried over, then new ones follow.
SMILES | FPR
O=C(C1CCC(CNS(=O)(=O)c2ccc(Cl)cc2)CC1)N1CCOCC1 (centres undefined) | i
N=c1c(C(=O)NCc2ccco2)cc2c(=O)n3ccccc3nc2n1C1CCCC1 | 6
CCCOc1ccc(C2NC(=O)NC(C)=C2C(=O)OC2CCC(C)CC2)cc1 (centres undefined) | i
COC(=O)C1C(=O)C2=C(CC1C)NC(C)=C(C(=O)OC(C)C)C2c1ccc(Cl)c([N+](=O)[O-])c1 (centres undefined) | 11
Cc1ccccc1-c1c(C(F)(F)F)oc2c(C)c(O)ccc2c1=O | i
COc1ccc2c(c1)C(C)=CC(C)(C)N2C(=O)CN1C(=O)C2CCCCC2C1=O (centres undefined) | 14
COC(=O)C1C(=O)C2=C(CC1C)NC(C)=C(C(=O)OCc1ccc(OC)cc1)C2c1cccc(F)c1 (centres undefined) | i
CCOc1ccccc1C(=O)NC1(C(F)(F)F)C(=O)Nc2c1c(=O)[nH]c(=O)n2-c1ccc(C)cc1 (centres undefined) | 65*
CCCCC(C(=O)O)C(C)CC(=O)Nc1ccccc1OC (centres undefined) | i
COC(=O)C1C(=O)C2=C(CC1C)NC(C)=C(C(=O)OC1CCCCC1)C2c1ccc(OC)cc1 (centres undefined) | i
COC(=O)C1C(=O)C2=C(CC1C)NC(C)=C(C(=O)OC(C)C)C2c1cccc(Oc2ccccc2)c1 (centres undefined) | i
COC(=O)c1ccc(C2C(C#N)=C(N)OC3=C2C(=O)CC(C)(C)C3)cc1 (centres undefined) | i
CCOCCOC(=O)C(C)Oc1ccc2c(=O)c(Oc3cc(C)cc(C)c3)c(C(F)(F)F)oc2c1 (centres undefined) | 13
COCCOC(=O)C1=C(C)NC2=C(C(=O)C(C(=O)OC)C(C)C2)C1c1cccc(Br)c1 (centres undefined) | 20
CC(=O)Oc1ccc2oc(=O)c3c(c2c1)CCCN3C(=O)CN1CCN(Cc2ccccc2)CC1 | 3
Cc1ccc(C2CC(C(F)(F)F)n3nc(C(=O)N(C)CCC#N)cc3N2)cc1 (centres undefined) | i
CCOC(=O)C(C(=O)Nc1ccccn1)C1CCCCC1 (centres undefined) | i
CCOC(=O)c1cc2c(=O)n3ccccc3nc2n(CC(C)C)c1=NC(=O)c1cccc(OC)c1OC | i
CN(C)c1ncnc2c1NC1=C(S2)C(=O)CC(C)(C)C1 | i
CCOC(=O)C1C(=O)C=C(c2ccc(OC)cc2)CC1c1cccc([N+](=O)[O-])c1 (centres undefined) | i
CCOC(=O)C1=C(N)OC2=C(C(=O)CC(C)(C)C2)C1C1CCCCC1 (centres undefined) | i
CC(=O)N1CCCc2cc(S(=O)(=O)NC(C(=O)NC(C)c3ccccc3)C(C)C)ccc21 (centres undefined) | i
CC1=C(C(=O)OCCC(C)C)C(c2ccc(O)c([N+](=O)[O-])c2)NC(=O)N1 (centres undefined) | i
Cc1cc(C)c(S(=O)(=O)NCC2CCC(C(=O)NCc3ccccn3)CC2)c(C)c1 (centres undefined) | i
O=C(O)c1cccc(NC(=O)C23CC4CC(C2)CC(n2cnc(Cl)n2)(C4)C3)c1 | i
CCOC(=O)C1CCC(CN(CC(C)C)S(=O)(=O)c2ccc([N+](=O)[O-])cc2)CC1 (centres undefined) | 0
CCOc1cccc(C2C(C(=O)OCCOC)=C(C)NC3=C2C(=O)C(C(=O)OC)C(C)C3)c1 (centres undefined) | 19
CCCOCCOC(=O)C1=C(C)NC2=C(C(=O)C(C(=O)OC)C(C)C2)C1c1ccc2c(c1)OCO2 (centres undefined) | 32
CCOc1cc(C2C(C(=O)OCCSCC)=C(C)NC3=C2C(=O)C(C(=O)OC)C(C)C3)cc(Br)c1OC (centres undefined) | 12
COc1cccc(NC(=O)C(NS(=O)(=O)c2ccc3c(c2)CCN3C(C)=O)C(C)C)c1 (centres undefined) | i
CC(=O)NCC(=O)N(Cc1cccs1)C1(C(=O)NC2CCCCC2)CCCCC1 | i
O=C(NC1(C(F)(F)F)C(=O)Nc2c1c(=O)[nH]c(=O)n2-c1ccc(Cl)cc1)c1cccs1 (centres undefined) | 22
COC(=O)C1C(=O)C2=C(CC1C)NC(C)=C(C(=O)OC(C)C)C2c1cccc(Cl)c1 (centres undefined) | 3
CC(C)C1=CC23CCC4C(C)(C(=O)O)CCCC4(C)C2CC1C1C(=O)N(c2ccc(C(=O)O)cc2)C(=O)C13 (centres undefined) | 25
CCCCCn1c(SCC(=O)NCc2ccccc2Cl)nc2cc(C(=O)NCc3ccco3)ccc2c1=O | i
Cc1ccc(NC(=O)C(NC(=O)c2ccc(C34CC5CC(CC(C5)C3)C4)cc2)C(C)C)nc1 (centres undefined) | 19
CC(=O)Oc1ccc2c3c(c(=O)oc2c1C)CCCC3 | i
